# RN4220 kill = kills Staphylococcus aureus RN4220. inhibition, % (concentration not given with the values). actives 0.33% (n = 330,000). S. aureus RN4220 growth, OD600, 16 h. AID 1259311;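 active = z-score of -3 or lower and OD600 up to 0.18 on both plates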;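 also: plate controls were untreated cells for no effect and reference antibiotic for full effect; stock transfer was 100 nL into about 80 µL; one replicate is shown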
# Mtb hypoxia rep = reduces hypoxia-regulated biosensor signal in M. tuberculosis. AID 1159583. fluorescence inhibition, % (no concentration beside the values). actives 0.1% (n = 300,000). M. tuberculosis hypoxia-regulated fluorescent reporter, fluorescence;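 active = 35 to 45% if threefold the growth effect, above 45% if 1.5-fold the growth effect; inactive = the rest, general growth blockers included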;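 also: wells of about 50 µL received 100 nL stock; 0% = vehicle wells and 100% = reference inhibitor wells; whole bacteria with a GFP reporter of the hypoxia response; strong numbers were not always called active; many hits fall short of the cut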
# Bead autofluor = compound fluorescence in toxin protease inhibitor counterscreen. fluorescence intensity (no concentration beside the values). compound autofluorescence counterscreen, microsphere flow cytometry; stronger effect = higher value. AID 624483. actives 3.1% (n = 360,000);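 active = at least 3 SD above the mean of all compounds, about 16000 in these data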;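 also: 100 nL of 1 mM stock went into each well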
# BJeLR viability = BJeLR cell viability loss | BJeLR (HRASV12) viability, CellTiter-Glo ATP luminescence, 48 h; reference of the scale not given here | inhibition, % (no concentration beside the values) | actives 0.17% (n = 300,000);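 active = replicate mean above 50%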;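 also: 50 nL library stock added to about 25 µL; numbers are from one replicate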
# PrP 5UTR inh = suppresses PrP 5' UTR mRNA reporter expression; cell-based PrP 5' UTR mRNA reporter, plate reader; inhibition, % (test concentration not listed); actives 0.35% (n = 340,000); AID 488862;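 active = every replicate at 50% or more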;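 also: 0 = median of the neutral control wells; tested in H4 reporter cells; numbers are from one replicate; inactives centre near -14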
# ugtP null kill = kills S. aureus RN4220 lacking UgtP; S. aureus RN4220 ugtP deletion, OD600 growth, 16 h; some inactives read as strong as hits; growth inhibition, % (no concentration beside the values); actives 0.54% (n = 330,000); AID 1259309;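 active = z-score under -3 and OD600 up to 0.15 on both plates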;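 also: plate controls were untreated wells for no effect and antibiotic for full effect; wells of about 80 µL received 100 nL stock; the first replicate is given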
# Mtb hypoxia rep growth = also measured in Mtb hypoxia rep; calls as there; growth inhibition, %; measured here: M. tuberculosis growth (absorbance);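 0% = vehicle and 100% = reference antibiotic; read after six days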
# Active calls of the source: *; x = no result given. No enrichment for hits; any-hit rate near 4%.
SMILES	Mtb hypoxia rep growth	ugtP null kill	PrP 5UTR inh	BJeLR viability	Mtb hypoxia rep	RN4220 kill	Bead autofluor
CC(=O)Nc1ccc(CN(C)CC2CCCN(CCc3cccc(C(F)(F)F)c3)C2)cc1 (stereo unspecified)	-3.9	3.8	-8.7	14.2	-2.7	-0.6	3987
C/C(=N\O)C(C)/[N+]([O-])=C/c1nc(C)c(C)n1O (stereo unspecified)	x	x	0.5	-4.0	x	x	2592
COc1ccccc1/C=C/C=N/NC(=O)CCn1cnc2ccccc21	x	x	-18.4	-4.9	x	x	4153
CCOC(=O)COc1c(C(=O)OC)sc2ncccc12	9.4	3.4	0.4	6.9	14.4	5.7	3078
Cc1ccc(C)c(-n2c(Cc3cc(=O)[nH]c(=O)[nH]3)nnc2SC(C)C)c1	x	3.1	-18.9	5.9	x	-1.2	5616
COC(CNC(=O)C(=O)NCC1CCCN1S(=O)(=O)c1cccs1)OC (stereo unspecified)	-5.4	-0.6	-3.3	-2.2	-9.9	3.9	4558
O=C1CN(C(=O)C2CC2)c2ccccc2N1	x	8.1	-11.6	-6.2	x	0.4	4674
S=c1nc(C23CC4CC(CC(C4)C2)C3)[nH][nH]1	13.0	-4.9	-7.5	-1.9	5.5	0.7	5953
O=C(CSc1nnc(-c2ccccc2)c2ccccc12)NCCN1C(=O)CSC1=O	7.9	-1.1	-22.4	x	-1.1	-3.0	3532
Cc1ccc(N)cc1Cl	1.1	3.9	-13.2	x	-5.8	4.9	3886
CCc1ccc(CCC(=O)Nc2ccc(C(=O)O)cc2)o1	-6.9	2.9	-2.8	-5.4	-5.3	0.1	4368
FC(F)(F)c1cccc(-n2c(Cn3nnc4ccccc43)n[nH]c2=S)c1	3.5	-8.3	x	-11.7	-7.1	2.0	x
O=C(N/N=C/c1cccc([N+](=O)[O-])c1)c1cc[n+](CCO)cc1	x	x	-11.0	1.3	x	x	3128
Cc1ccc(-n2c(SCC(=O)N3Cc4ccccc4CC3C(=O)O)nnc2-c2cccnc2)c(C)c1 (stereo unspecified)	9.0	7.0	-13.7	8.1	-1.4	3.2	2236
S=C1NCCc2ccccc2C1c1ccccc1Cl (stereo unspecified)	-5.9	1.4	-59.9	-2.2	2.2	2.7	4129
CC(=O)Nc1ccc(S(=O)(=O)NCCC(=O)OCc2nnc(-c3ccccc3)o2)cc1	-3.9	0.2	-10.9	5.6	1.5	1.4	6215
O=C(NCc1ccc(Cl)c(Cl)c1)c1ccc2c(c1)OCO2	10.2	-9.8	-1.9	-6.6	-3.9	-4.3	5682
O=C(CCN1C(=O)c2ccccc2C1=O)NCc1ccco1	7.6	-0.4	-17.1	8.0	-0.9	-0.6	9635
CCC(C)C(NC(=O)C(C)NC(=O)CNC(=O)OC(C)(C)C)C(N)=O (stereo unspecified)	7.0	5.7	-7.5	9.9	8.9	4.8	3376
Cc1cc(Cl)ccc1OCCCC(=O)NCc1cccs1	7.4	-9.1	2.2	-8.0	-8.3	-9.8	7799
COc1ccc(S(=O)(=O)N2CCC(C(=O)Nc3ccc(S(=O)(=O)N4CCCC4)cc3)CC2)cc1OC	-3.4	0.5	-30.6	-3.4	-2.7	3.8	6788
CNC(=S)N(CCO)Cc1cc2cc3c(cc2[nH]c1=O)OCCO3	3.1	3.0	-2.6	-5.1	7.2	1.3	3845
CC(=O)c1ccc2c3c(cccc13)C(=O)N(CCc1ccccc1)C2=O	-3.3	-8.3	-76.0	-3.5	3.3	-6.1	2047
CCCCc1nc2cc(C(=O)NCc3nccn3CC)ccc2o1	-3.6	1.5	-23.8	-0.6	7.1	1.9	6177
O=C(CSc1nnc2ncccn12)Nc1cccc2ccccc12	-2.8	9.2	-13.8	3.7	-10.5	8.8	4420

# Remaining list, next part
SMILES	Mtb hypoxia rep growth	ugtP null kill	PrP 5UTR inh	BJeLR viability	Mtb hypoxia rep	RN4220 kill	Bead autofluor
CCn1c(SCC(=O)NC(=O)Nc2ccc3c(c2)OCCO3)nnc1-c1cccs1	3.6	-4.3	-10.3	4.3	1.2	2.9	9613
COc1ccc(CNC(=O)c2onc(C)c2Cl)cc1	6.1	14.7	0.4	0.8	10.6	2.9	6200
Cc1ccc(C(=O)COC(=O)c2ccc3c(c2)C(=O)N(c2cccc4ncccc24)C3=O)cc1	7.8	-2.5	-4.0	x	6.9	4.4	2073
Cc1ccc(SCc2nc(-c3cccnc3)no2)cc1	x	-5.8	-14.3	-3.6	x	6.3	2631
Cc1ccc(-c2onc3ccc(Br)cc23)cc1	-6.8	7.3	-23.6	2.8	-0.9	5.7	4119
O=C(NN=Cc1ccc(Br)s1)c1ccccc1[N+](=O)[O-]	10.1	-7.2	x	x	3.1	4.1	x
ON=C(c1ccccn1)C1CC1c1ccccc1 (stereo unspecified)	-3.4	-0.9	x	x	-8.4	3.7	x
CCCOc1ccc2oc(=O)c3c(c2c1)CCCN3C(=O)CN1CCN(c2ncccn2)CC1	x	-5.0	15.6	-7.3	x	-3.1	4993
CC(=O)Nc1ccc2nc(-c3cccn3C)[nH]c2c1	x	x	-32.3	0.6	x	x	4059
CCOC(=O)C1=C(C)NC(=O)NC1c1ccccc1OCc1c(F)cccc1Cl (stereo unspecified)	x	-1.7	3.7	1.2	x	5.3	5057
Cc1cccc(NC(=S)NNC(=O)c2ccc(Br)o2)c1	10.6	-5.4	-17.2	2.0	9.3	3.6	10059
O=C(CSc1nnc2ccccn12)NCCc1ccc(F)cc1	7.1	3.7	-8.0	x	16.4	9.6	3259
COc1cc(NC(=O)CSc2nccc(C)n2)c(C(=O)O)cc1OC	-0.5	2.9	-19.6	22.1	-0.2	2.5	8374
CCOC(=O)C1(C)NC(c2cccs2)C2C(=O)N(c3ccc(OC)cc3)C(=O)C21 (stereo unspecified)	0.0	-0.3	x	4.8	5.4	1.1	4608
O=C(CCSCc1ccc(Cl)cc1)NCc1ccco1	8.5	8.9	-9.3	8.2	-2.4	2.6	4293
O=C(Cc1ccc([N+](=O)[O-])cc1)N1CCc2ccccc2C1	5.5	7.4	-18.3	1.4	17.5	0.7	2777
CC(C)(C)[C@@H]1C=C(C(N)=O)O[C@H](OCc2ccc(CO)cc2)C1	x	x	-4.3	2.5	x	x	4045
Cc1ccc(NS(=O)(=O)c2cc(C(=O)N(C)C)ccc2C)cc1C	-3.8	-6.5	-26.2	7.1	3.0	-1.4	3524
CNC(=O)NC(=O)C(c1ccccc1)N(C)CC1COc2ccccc2O1 (stereo unspecified)	0.2	1.5	-18.0	-13.2	3.3	-0.3	4295
CCOC(=O)C1=C(N)n2c(s/c(=C/c3ccco3)c2=O)=C(C(=O)OC)C1c1ccco1 (stereo unspecified)	x	x	-33.6	-2.2	x	x	20070*
COc1ccc(C2=Nn3c(nnc3-c3ccccc3Cl)SC2)cc1OCC1CC1	16.6	-42.5	-11.8	x	-5.7	0.4	4200
CC(=Nc1ccc(C)cc1)c1sc2ccccc2c1O	-6.7	-6.4	-45.2	-10.2	-3.4	-5.6	10730
CC1(C)CC(=O)C(Sc2nnc(-c3ccc(NS(C)(=O)=O)cc3)n2Cc2ccco2)C(=O)C1	0.8	9.2	-15.1	x	1.8	0.3	10546
Nc1nc(F)nc2c1ncn2[C@@H]1O[C@H](CO)[C@@H](O)[C@@H]1O	x	x	-33.5	11.2	x	x	6014
CC(=O)c1cccc(NC(=O)CN2C(=O)NC(C)(c3ccc4c(c3)OCCCO4)C2=O)c1 (stereo unspecified)	-1.3	4.2	-4.9	x	-2.4	-1.7	6302

# Fetched by compound from above (4):
SMILES	Mtb hypoxia rep growth	ugtP null kill	PrP 5UTR inh	BJeLR viability	Mtb hypoxia rep	RN4220 kill	Bead autofluor
Cc1ccc(C(=O)COC(=O)c2ccc3c(c2)C(=O)N(c2cccc4ncccc24)C3=O)cc1	7.8	-2.5	-4.0	x	6.9	4.4	2073
CC(=O)c1cccc(NC(=O)CN2C(=O)NC(C)(c3ccc4c(c3)OCCCO4)C2=O)c1 (stereo unspecified)	-1.3	4.2	-4.9	x	-2.4	-1.7	6302
COc1cc(NC(=O)CSc2nccc(C)n2)c(C(=O)O)cc1OC	-0.5	2.9	-19.6	22.1	-0.2	2.5	8374
CNC(=O)NC(=O)C(c1ccccc1)N(C)CC1COc2ccccc2O1 (stereo unspecified)	0.2	1.5	-18.0	-13.2	3.3	-0.3	4295

# (next part)
SMILES	Mtb hypoxia rep growth	ugtP null kill	PrP 5UTR inh	BJeLR viability	Mtb hypoxia rep	RN4220 kill	Bead autofluor
N#CCCN(C(=O)CSc1nc2ccccc2c(=O)[nH]1)c1ccc(F)cc1	0.6	8.0	-7.5	x	3.6	4.6	5649
COC(=O)c1cccc(-n2nnnc2SCC(=O)Nc2cc(C)on2)c1	9.4	-2.0	-27.1	-3.7	6.8	3.7	2590
C=C(C)C(=O)Nc1cccc(C2=NOC3(C2)CC(C(N)=O)N(C(=O)c2cc([N+](=O)[O-])cc([N+](=O)[O-])c2)C3)c1 (stereo unspecified)	x	-5.4	x	x	x	5.8	x
CCc1noc(C)c1C(=O)N(CCOC)c1c(N)n(CC(C)C)c(=O)[nH]c1=O	2.9	-2.3	-14.2	6.9	-2.0	3.2	5250
CCOC(=O)C1=NN(c2ccccc2)C2C(=O)N(c3ccccc3OC)C(=O)C12 (stereo unspecified)	12.1	1.3	-20.7	11.2	8.3	0.8	x
CC(=O)NCCCCCCNC(C)=O	3.1	-0.4	-9.3	-10.1	0.7	6.4	4251
O=C(c1ccccc1)N1CCOC(O)(c2ccccc2)C1c1ccccc1 (stereo unspecified)	-4.0	-6.4	-4.3	x	-4.4	4.3	3544
C/C(=N\NC(=O)c1ccncc1)c1c(O)[nH]c(=O)[nH]c1=O	-3.7	-0.9	x	-3.9	3.4	-7.1	x
NCCCC[C@H]1CNC(=O)C(=O)N1CCc1cc(C(F)(F)F)cc(C(F)(F)F)c1	x	x	0.1	-8.1	x	x	2975
O=S1(=O)C=CC(N2CCOCC2)C1 (stereo unspecified)	x	-2.5	-3.4	4.9	x	2.1	2340
O=C1c2cccnc2Oc2ccc(Cl)cc2N1Cc1ccc(F)cc1	13.8	10.7	-25.6	-2.5	10.9	3.0	2151
Cc1cc(C)c(C(=O)/C=C/c2ccc(C(C)C)cc2)c(=O)[nH]1	-3.4	-5.8	-10.2	12.3	0.6	4.5	17863*
Cc1nc2ccc(S(=O)(=O)N(C)CC(=O)NC(C)c3ccccc3)cc2s1 (stereo unspecified)	6.6	-1.1	-5.6	-0.1	-5.4	1.9	6545
CN(C)S(=O)(=O)c1ccc(C(=O)NCCSc2ccc(Br)cc2)cc1	2.9	4.4	-4.8	-2.4	3.5	8.8	6653
O=C(Cc1ccccc1)NCCS(=O)(=O)N1CCN(c2cccc(Cl)c2)CC1	-10.3	-0.4	0.8	3.7	-6.0	-3.2	x
COc1ccc(N=C2NC(=O)/C(=C/C=C/c3ccccc3)S2)cc1	-7.9	-9.9	-12.6	-0.1	-0.1	-0.1	4127
Cc1ccccc1C(=O)NNC(=O)c1ccc(Br)cc1	-1.4	9.8	-60.4	1.8	4.7	12.5	2063
COc1cccc2c1OC1(C)CC2NC(=O)N1c1cccc(C(=O)N2CCN(c3ccccn3)CC2)c1 (stereo unspecified)	x	2.0	1.0	2.0	x	0.2	3446
CCCCN(C(=O)c1ccc(N2CCCC2=O)cc1)c1c(N)n(CCCC)c(=O)[nH]c1=O	-2.5	9.4	-21.6	3.6	0.1	2.1	4948
CN(C)/C=C/C(=O)c1ccc([N+](=O)[O-])c(CS(=O)(=O)c2ccccc2)c1	0.8	2.4	x	3.0	-4.6	2.9	3975
COc1ccc(/C=N/NC(=O)c2ccc3c(c2)OCO3)cc1	x	x	-12.9	5.9	x	x	4231
COc1cccc(OC)c1C(=O)N1CC(C)OC(C)C1 (stereo unspecified)	-5.3	14.7	-3.6	-2.4	3.8	7.3	7923
O=C1/C(=C/c2ccccc2)Nc2ccccc21	12.4	-10.0	x	-6.9	3.7	3.4	9346
O=C(CSc1ccccc1)N1CCN(S(=O)(=O)c2ccccc2)CC1	-3.6	5.8	-10.6	11.0	-0.7	4.0	5720
Cc1cc(C)nc(NC(=NCc2ccc3c(c2)OCO3)NC(=O)Nc2ccccc2)n1	7.3	-10.8	x	x	6.7	1.0	12009
Cc1cc(NC(=O)CN2CCC(C)CC2)no1	0.0	3.1	-20.2	7.1	-5.4	2.5	3182
Oc1ccc(Nc2ccnc3cc(Cl)ccc23)cc1	x	x	-14.7	-0.7	x	x	4146

# Screens from PubChem BioAssay.
